Screening data (PubChem BioAssay)
CBX7 AlphaScr = inhibitors of human CBX7 binding to H3K27me3 peptide; O95931; AlphaScreen His6-CBX7 / biotin-H3K27me3 peptide binding; stronger effect = lower value; normalised signal (fraction of DMSO) (no concentration beside the values); actives 1.1% (n = 66,000); in the data active = normalised signal below about 0.5;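 also: 100 nL library stock added to about 20 µL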
Target sequence (O95931 whole entry, looked up): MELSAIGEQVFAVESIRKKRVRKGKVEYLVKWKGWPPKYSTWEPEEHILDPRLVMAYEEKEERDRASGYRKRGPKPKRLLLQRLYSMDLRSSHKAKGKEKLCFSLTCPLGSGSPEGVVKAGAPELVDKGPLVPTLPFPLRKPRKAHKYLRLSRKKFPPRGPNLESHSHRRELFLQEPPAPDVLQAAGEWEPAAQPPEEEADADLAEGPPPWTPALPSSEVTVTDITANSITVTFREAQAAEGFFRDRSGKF
CBX7 AlphaScr z-score = second read-out of CBX7 AlphaScr, no call of its own (marks repeat the call); z-score; measured here: z-score of CBX7 signal; some inactives read as strong as hits; reference of the scale not given here;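 same signal on another scale; lower means less binding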
Numbers without * were called inactive. The list is partial; count on the stated rates, not on these rows.

SMILES	CBX7 AlphaScr	CBX7 AlphaScr z-score
Cc1onc(-c2ccccc2Cl)c1C(=O)N1CCc2ccccc2C1	1	0.27
CCCc1cc2c(=O)c(-c3ccc4c(c3)OCO4)c(C)oc2cc1OCC(=O)O	0.98	-1
Cc1ccccc1OCc1nc(C#N)c(N2CCC(C)CC2)o1	0.74	-1.6
CCn1c(C(=O)N2CCC(C(=O)N3CCN(c4cc(C)ccc4C)CC3)CC2)cc2sccc21	0.68	-1.4
O=C(Cn1cc(S(=O)(=O)c2ccccc2)c(=O)c2cc(Br)ccc21)Nc1ccccc1	0.89	-1.6
COc1ccc(-c2csc(NC(=O)c3ccc(Oc4ccccc4)cc3)n2)cc1OC	0.79	-8.7
CC(=O)N1CCc2cc(S(=O)(=O)NC(C(=O)O)c3ccccc3)ccc21 (centres undefined)	1.1	1.6
Cn1c2ccccc2n2nc(-c3ccccc3)cc12	0.77	-0.91
Cc1cc(N2CCC(C)CC2)nc2ccc(NC(=O)C(C)Oc3ccc(Cl)cc3Cl)cc12 (centres undefined)	1.5	5.7
Cc1ccccc1-n1c(=O)cc(N2CCc3ccccc32)[nH]c1=O	1.1	1.9
Cc1c(C(=O)NCCc2ccccc2)oc2ccc(S(=O)(=O)N3CCCC(C)C3)cc12 (centres undefined)	0.96	-0.35
Oc1ccccc1-c1nc(Nc2cccc(F)c2)c2ccccc2n1	0.95	-0.053
Cc1ccc(-c2nc(=O)[nH]c3ccccc23)cc1	1	0.86
Clc1ccc(-c2nc3ncccn3c2Nc2ccccc2)cc1	1.1	2.5
COCCn1c(=O)[nH]c2cc(C(=O)NCc3ccccn3)ccc2c1=O	0.88	-2.2

Structural class: the compounds so far containing four or more nitrogen atoms
SMILES	CBX7 AlphaScr	CBX7 AlphaScr z-score
CCn1c(C(=O)N2CCC(C(=O)N3CCN(c4cc(C)ccc4C)CC3)CC2)cc2sccc21	0.68	-1.4
Clc1ccc(-c2nc3ncccn3c2Nc2ccccc2)cc1	1.1	2.5
COCCn1c(=O)[nH]c2cc(C(=O)NCc3ccccn3)ccc2c1=O	0.88	-2.2

Continuation.
SMILES	CBX7 AlphaScr	CBX7 AlphaScr z-score
CCC(=O)N1CCc2cc(S(=O)(=O)CCC(=O)NCc3ccccc3)ccc21	1.1	0.92
O=C1CC(c2ccc3c(c2)OCO3)c2cc3c(cc2N1)OCO3 (centres undefined)	0.96	-1.6
Cc1ccccc1Nc1nc(-c2cc3cc(Br)ccc3oc2=O)cs1	1.1	3.8
Fc1ccccc1Cn1c(COc2ccc(Cl)cc2)nc2ccccc21	1	0.47
Cc1ccc(Cn2c(=N)n(CC(=O)c3ccccc3)c3ccccc32)cc1	0.76	-1.1
COc1ccc(N2CCN(C(=O)C3CCN(S(=O)(=O)c4cnc[nH]4)CC3)CC2)cc1	0.96	-0.36
COc1cccc(-c2nc(CS(=O)(=O)CC(=O)N3CCN(c4ccccn4)CC3)c(C)o2)c1	0.88	-0.43
CCc1nnc(NS(=O)(=O)c2ccc(NC(=O)c3ccc(F)cc3)cc2)s1	0.97	-0.35
CC(O)Cc1nsc(NC(=O)c2ccc(Cl)cc2)n1 (centres undefined)	1	0.18
Oc1ccc(C2(c3ccc(F)cc3)CCCCC2)cc1	0.98	-0.63
Cc1ccc(NCC(O)Cn2c3c(c4ccccc42)CCN(C)C3=O)cc1 (centres undefined)	0.87	-2.6
CN(CC(=O)Nc1ccc(Br)cc1)S(=O)(=O)c1ccc2c(c1)CCC(=O)N2	0.92	-1.8
COc1ccc(-c2nn(C)c3sc(C(=O)NC4CCCC(C)C4C)cc23)cc1OC (centres undefined)	0.9	-2.7
COc1ccc(NC(=O)CSc2nnc(CNC(=O)c3c(F)cccc3Cl)o2)c(OC)c1	0.86	-2.4
COc1ccc(-c2cc(C(=O)Nc3cc(C)on3)no2)cc1	0.96	-0.87
CCOc1ccc(-n2c(C)nc3c(cnn3-c3ccc(C)cc3)c2=O)cc1	0.85	-2.2
FC(F)(F)c1cc(-c2ccccc2)nc2c1c(-c1ccc(Cl)cc1)nn2Cc1ccccc1	1.3	6.5
Cc1ccc(-n2cc(-c3ccccc3)[nH]c2=O)cc1F	0.97	-0.62
Cc1cc2nc(Nc3ncc4c(n3)CCCC4=O)nc(C)c2cc1C	1	0.9
Cc1c(C(=O)Nc2cccc(C(F)(F)F)c2)oc2ccc(S(=O)(=O)N(C)C3CCCCC3)cc12	1.1	4.3
CCC(C)NC(=O)CN1N=C(c2ccc(Cl)cc2)CCC1=O (centres undefined)	1.1	1.1
CCOC(=O)N1CCC(Nc2c(NCCc3ccc(S(N)(=O)=O)cc3)c(=O)c2=O)CC1	0.8	-2.4
Cc1ccc(Nc2c(-c3cccnc3)nc3ccc(Br)cn23)cc1	0.99	-0.21
Clc1ccc(-c2nc3cnccn3c2NC2CCCCC2)cc1	1.4	3.2
Cc1ccc2ccc(NC(=O)c3ccccc3F)cc2n1	1	0.31
COc1cc(-c2ncc3ccccn23)cc(OC)c1OC	0.9	-2.9
Cc1cc(C)cc(NS(=O)(=O)c2ccc3[nH]cc(C(=O)N4CCCCCC4)c(=O)c3c2)c1	0.91	-1.6
CCC1Oc2ccccc2N(CC(=O)NCCN(CC)c2ccccc2)C1=O (centres undefined)	1	0.37
COC(=O)c1ccc2c(c1)N(Cc1ccc(C(F)(F)F)cc1)C(=O)c1ccccc1S2	1.1	5.1
C=CCN1C(=O)CSc2ccc(C(=O)OCC)cc21	1	0.15
Cc1ccc(-c2nnc(NC(=O)c3ccc(S(=O)(=O)N4CCCCC4)cc3)s2)cc1	1	1.7
Cc1ccc(NC(=O)Cn2cnc3sc4c(c3c2=O)CCCC4)c(C)c1	0.96	-1.1
O=C(NCCN1CCCC1)c1cc(-c2ccncc2)nc2ccc(S(=O)(=O)N3CCOCC3)cc12	1.2	2
COc1ccccc1NC(=O)C(NS(=O)(=O)c1ccc2nc(C)sc2c1)C(C)C (centres undefined)	1	0.39
O=C(c1cnn(-c2ccccc2)c1-n1cccc1)N1CCN(c2ccccn2)CC1	1	1.3
COc1cccc(NC(=O)CNC(=O)Cn2cnc3sc(C)cc3c2=O)c1	0.99	-0.16
Cc1ccc(-c2csc(NC(=O)CCCOc3cccc(C)c3)n2)cc1	1	0.033
CCOC(=O)Cc1csc(NC(=O)Cc2ccccc2)n1	0.96	-0.45
Cc1cc(C)n(-c2nc3ccccc3nc2Nc2ccc(F)cc2)n1	1.2	5.6
CCC(C)NC(=O)c1cc(-c2ccc(OC)cc2)nc2ccc(C(C)C)cc12 (centres undefined)	1.2	4.9
CCOc1cc2c(cc1OCC)C(c1ccccc1OC)CC(=O)N2 (centres undefined)	1	0.28
CCC1=Nc2cc(C(=O)NCCN(CC)c3ccccc3)ccc2Sc2ccc(C)cc21	0.77	-2.5
Clc1ccc(OCc2nc(-c3ccncc3)no2)cc1	1.1	0.12
Cn1nc(-c2ccc(OCC(=O)N3CCN(c4ccccc4)CC3)cc2)c2ccccc2c1=O	0.99	-0.32
Cc1oc2c(CN3CCCC3)c(O)ccc2c(=O)c1-c1nc2ccccc2s1	1	0.13
N#Cc1cccc(Nc2c3c(nc4ccccc24)CCC3)c1	0.99	-0.11
CC1CCCC(NC(=O)c2cc(-c3ccncc3)nc3ccccc23)C1C (centres undefined)	0.95	-0.52
Fc1ccccc1-c1nc(NCCc2ccccc2Cl)c2ccccc2n1	1	0.059
CCN(C(=O)Cn1c(C(=O)OC)cc2sc(Cl)cc21)c1cccc(C)c1	1	0.37
Cc1ccc(NC(=O)C2CCN(S(=O)(=O)c3c(C)noc3/C=C/c3cccs3)CC2)nc1	0.93	-0.14
Cc1ccccc1-n1cnc2cc(Nc3nnc(-c4ccccc4)c4ccccc34)ccc21	0.74	-5.5
Cc1cc(NCCc2ccccc2)nc(-c2ccccc2O)n1	1	0.22
CC(C)Sc1nnc(Cc2cc(=O)[nH]c(=O)[nH]2)n1-c1ccc(F)cc1	1	0.24
CCN(CC)CCNC(=O)c1cc(=O)n(Cc2ccc(Cl)cc2)c2ccccc12	1.1	0.89
CCCCOc1ccc(C(=O)Nc2ccc3nn(-c4cccc(Cl)c4)nc3c2)cc1	1	1.1
CCN(CCCNC(=O)c1cc2c(-c3cccc(OC)c3)nn(C)c2s1)c1ccccc1	0.82	-4.9
O=C(Nc1ccncc1)c1nn2c(C(F)(F)F)cc(-c3cccs3)nc2c1Br	1	0.89
CCOC(=O)c1cnc2cc(Cl)c(OC)cc2c1Nc1ccccc1OC	1	0.0062
CCCN1Cc2cccc(C(=O)Nc3c(F)c(F)cc(F)c3F)c2C1=O	1	0.3
COc1ccc(N(C)S(=O)(=O)c2ccc3c(c2)n(C)c(=O)c(=O)n3C)cc1	1.1	0.81

Going on with the list:
SMILES	CBX7 AlphaScr	CBX7 AlphaScr z-score
CCn1c(C2CC(=O)N(c3cccc(C)c3C)C2)nc2ccccc21 (centres undefined)	1	0.11
CC(C)c1ccc(NC2=NS(=O)(=O)c3ccccc32)cc1	0.97	-0.82
COc1ccccc1-c1coc2c(CN3CCC(C)CC3)c(O)ccc2c1=O	0.94	-1.1
Cc1cc(C)c(-c2csc(NC(=O)c3ccc(-c4ccccc4)cc3)n2)c(C)c1	1	0.57
CCC(C)(C(=O)Nc1ccc2c(c1)OCCO2)N(C)C(=O)c1ccccn1 (centres undefined)	1.1	0.69
CC1CCN(S(=O)(=O)c2ccc3c(c2)N(CC(=O)Nc2ccc(F)cc2F)C(=O)CO3)CC1	1	-0.0019
CCOC(=O)c1cccc(NC(=O)c2cc3c(-c4ccc(OC)c(OC)c4)nn(C)c3s2)c1	0.87	-1.7
O=S(=O)(Nc1ccc(Br)cc1)c1cnc[nH]1	1.2	2.6
CC(C)Oc1ccc(OCCSc2nc3ccccc3n2Cc2ccccc2)cc1	0.85	-3.6
Cc1ccc(-c2nn(C)c(=O)c3ccccc23)cc1CNS(=O)(=O)c1ccccc1	0.97	-0.31
CN(C(=O)Cn1nc(Cc2ccncc2)c2ccccc2c1=O)c1ccccc1F	0.99	-0.37
CC(=O)c1ccc(C(=O)Nc2ccccc2-c2nc3ccccc3[nH]2)cc1	1.1	0.81
c1ccc(CN2CCN(CCN3CCn4c3nc3ccccc34)CC2)cc1	1.1	1
CCOCCCNC(=O)c1ccc2c(c1)N(Cc1cccc(C)c1)C(=O)c1ccccc1S2	1	-0.04
Cc1ccc(S(=O)(=O)c2cn(Cc3cccc(C)c3)c3ccc(F)cc3c2=O)cc1	0.99	-0.5

In the list so far, these have a cyano group.
SMILES	CBX7 AlphaScr	CBX7 AlphaScr z-score
Cc1ccccc1OCc1nc(C#N)c(N2CCC(C)CC2)o1	0.74	-1.6
N#Cc1cccc(Nc2c3c(nc4ccccc24)CCC3)c1	0.99	-0.11

Following part.
SMILES	CBX7 AlphaScr	CBX7 AlphaScr z-score
Cc1ccc2c(c1)c(=O)c(S(=O)(=O)c1ccccc1)cn2CC(=O)Nc1ccc(Cl)cc1	0.91	-1.3
CCN(CC)C(=O)c1ccccc1C(=O)c1ncc[nH]1	1.1	3.1
COc1ccc2c(c1)-c1nc(NC(C)=O)sc1CC2	1	1
CC(C)NC(=O)Cn1nc(-c2ccccc2)c2cc(Cl)ccc21	1	0.2
Oc1ccc(-c2nc3ccccn3c2Nc2ccc3c(c2)OCCO3)cc1	0.8	-7.3
CC(O)CNC(=O)c1ccc(-c2nn(C)c(=O)c3ccccc23)cc1 (centres undefined)	1.3	2.6
CCOc1ccc(NC(=O)C(CC(C)C)NS(=O)(=O)c2ccc3nc(C)sc3c2)cc1 (centres undefined)	0.99	-0.33
CCN1C(=O)c2ccccc2S(=O)c2ccc(C(=O)N(C)C3CCCCC3)cc21 (centres undefined)	0.98	-0.43
COc1ccc(-c2noc(CCC(=O)Nc3ccccn3)n2)cc1	1	0.14
COC(=O)c1cccc2c1C(=O)N(c1ccc(OC)cc1)C2	1	0.27
Cc1nc2cc(-c3ccccc3)nn2c(C(C)(C)C)c1C	0.91	-1.1
Cc1ccc(-n2cc(-c3ccccc3)c3c(NCCCN4CCOCC4)ncnc32)cc1	0.95	-1.5
CCOC(=O)c1sc2ncn(CC(=O)Nc3ccc(C)cc3Br)c(=O)c2c1C	1	1.9
CC(C)c1ccc2oc(-c3ccc(NC(=O)c4ncn[nH]4)cc3)nc2c1	0.026*	-26*
Cc1cc(N2CCCCC2)nc2ccc(NC(=O)CCC(=O)NCCCN3CC(C)CC(C)C3)cc12 (centres undefined)	0.93	-2.9

Ordered by heavy-atom count (falling): some entries from above
SMILES	CBX7 AlphaScr	CBX7 AlphaScr z-score
Cc1ccc(-n2cc(-c3ccccc3)c3c(NCCCN4CCOCC4)ncnc32)cc1	0.95	-1.5
CCOc1ccc(NC(=O)C(CC(C)C)NS(=O)(=O)c2ccc3nc(C)sc3c2)cc1 (centres undefined)	0.99	-0.33
CCOC(=O)c1sc2ncn(CC(=O)Nc3ccc(C)cc3Br)c(=O)c2c1C	1	1.9
CC(O)CNC(=O)c1ccc(-c2nn(C)c(=O)c3ccccc23)cc1 (centres undefined)	1.3	2.6

Additional entries follow.
SMILES	CBX7 AlphaScr	CBX7 AlphaScr z-score
CC(=O)N1c2ccc(S(=O)(=O)N3CCN(c4ccccc4F)CC3)cc2CC1C (centres undefined)	1.4	1.6
CC(CC(=O)Nc1nccs1)CC1=NS(=O)(=O)c2ccccc2N1 (centres undefined)	1.1	1.1
CCc1ccc(NC(=O)N(Cc2cccnc2)Cc2ccccc2Cl)cc1	0.75	-0.25
Cc1cc2ccccc2c(=O)n1CC(=O)Nc1ccc(Oc2ccccc2)cc1	0.92	-2
Cc1ccc(-c2nc3ncccc3o2)cc1NC(=O)CC(C)C	1.2	1.5
CC1CCCC(C(=O)O)N1C (centres undefined)	1	0.051
CC(C)c1ccc(Nc2cc(C(=O)NCCCN3CCOCC3)c3ccccc3n2)cc1	1.2	0.16
Oc1ccccc1-c1nc(Nc2ccc(Br)cc2)c2ccccc2n1	1	0.23
COc1ccc(Cl)cc1N(C)C(=O)Cc1c(C(=O)O)[nH]c2ccc(Cl)cc12	1.1	1.7
Cc1cc(C)cc(OCc2nnc(NC(=O)c3ccc(C)c(C)c3)s2)c1	1.1	0.52
